Source: PubChem BioAssay (Broad Institute)
Vaccinia stage: blocks a specific stage of Vaccinia orthopoxvirus infection; Vaccinia-infected cells, mCherry/Venus stage reporter fluorescence; active compounds read low; some inactives read as strong as hits; activity change (mCherry), % (test concentration not listed); 89,000 compounds, 0.01% hits; AID 1053133;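 active = mCherry past -33% and 40 or more points under the early reporter, replicates agreeing; inconclusive = past -33% without that gap or agreement; tested in A549 cells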;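 note: scaled between vehicle wells and reference inhibitor wells; 23 nL library stock went into each well; one replicate is shown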
Vaccinia stage Venus: second read-out of Vaccinia stage, no call of its own (marks repeat the call); activity change (Venus), %; measured here: Venus reporter, other viral stage;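 negative = less Venus signal; first of two replicates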
* marks the source's active call; other numbers are inactive results; u = inconclusive; x = not tested or not shown.

Results follow in this order: Vaccinia stage	Vaccinia stage Venus
C[C@@H]1CCCCO[C@@H](CN(C)S(=O)(=O)c2ccccc2)[C@H](C)CN([C@H](C)CO)C(=O)c2cc(NS(=O)(=O)c3ccc(F)cc3)ccc2O1
 : u	x
O=C(C[C@H]1C[C@@H]2c3cc(NC(=O)NC4CCCC4)ccc3O[C@@H]2[C@H](CO)O1)NC1CCCC1
 : 8	4
O=C(c1ccccc1)N1[C@@H](CO)[C@@H](c2ccccc2)C12CN(CCC(F)(F)F)C2
 : -2	1
Cc1ccccc1S(=O)(=O)N[C@@H]1CC[C@@H](CCn2cc(-c3ccc(F)cc3)nn2)O[C@H]1CO
 : u	x
Cc1ccc(S(=O)(=O)N(C)C[C@H]2OCCCC[C@H](C)Oc3ccc(NC(=O)Nc4c(C)noc4C)cc3C(=O)N([C@H](C)CO)C[C@@H]2C)cc1
 : 14	6
C[C@@H]1CN([C@H](C)CO)C(=O)c2cc(NC(=O)NC3CCCCC3)ccc2O[C@@H](C)CCCCO[C@@H]1CN(C)Cc1ccc2c(c1)OCO2
 : -26	-18
COc1cccc(C(=O)Nc2ccc3c(c2)C(=O)N(C)C[C@H](OC)[C@@H](C)CN(C(=O)C2CCCC2)[C@H](C)CO3)c1
 : -13	-10
CNC[C@@H]1OCCCC[C@H](C)Oc2ccc(NS(=O)(=O)c3ccccc3)cc2C(=O)N([C@@H](C)CO)C[C@@H]1C
 : 7	8
COCC(=O)Nc1ccc2c(c1)OC[C@H](C)N(C)C[C@@H](C)[C@H](OC)CN(C)C2=O
 : -3	-3
COc1ccc(NC(=O)Nc2ccc3c(c2)CC(=O)N([C@H](C)CO)C[C@H](C)[C@H](CN(C)C(=O)Nc2ccc4c(c2)OCO4)O3)cc1
 : 19	15
Cc1cc(C(=O)Nc2cccc3c2O[C@H](CN(C)S(=O)(=O)c2ccc(Cl)cc2)[C@@H](C)CN([C@H](C)CO)C3=O)n(C)n1
 : 7	2
C[C@H](CO)N1C[C@H](C)[C@@H](CN(C)Cc2cccc(F)c2)Oc2ncc(C#CCN(C)C)cc2C1=O
 : 3	2
O=C(Nc1ccc(F)cc1)N[C@@H]1CC[C@@H](CCNS(=O)(=O)c2ccccc2F)O[C@H]1CO
 : -7	-15
CN1C(=O)c2cc(NC(=O)NCc3ccccc3)ccc2OC[C@H]2O[C@H](CC(=O)NCC3CCCCC3)CC[C@H]21
 : 6	7
C[C@H](CO)N1C[C@H](C)[C@H](CN(C)C(=O)Nc2ccccc2)Oc2ccc(NC(=O)Nc3ccc(C(F)(F)F)cc3)cc2C1=O
 : -16	-4
CN(C)C(=O)c1ccc(-c2ccc([C@@H]3[C@@H](CO)N4CCCCN(C(=O)C5CC5)C[C@H]34)cc2)cc1
 : 15	-1
COCC(=O)N1C[C@@H](C)[C@@H](OC)CN(C)C(=O)c2cc(NC(=O)Nc3cccc(F)c3)ccc2OC[C@H]1C
 : 7	24
COc1cccc(S(=O)(=O)N(C)C[C@@H]2Oc3ncc(-c4ccc(F)cc4)cc3C(=O)N([C@H](C)CO)C[C@@H]2C)c1
 : -31	-21
COc1ccc2c3c(n(C)c2c1)[C@H](CO)N(S(=O)(=O)c1ccc(C)cc1)CC31CCN(Cc2cccnc2)CC1
 : 7	-3
O=C(O)C[C@H]1C[C@@H]2c3cc(NC(=O)Cc4ccncc4)ccc3O[C@@H]2[C@H](CO)O1
 : 19	20
C[C@H]1CN([C@@H](C)CO)C(=O)Cc2cc(NC(=O)Cc3ccccc3)ccc2O[C@@H]1CN(C)Cc1ccc(-c2ccccc2)cc1
 : u	x
COc1ccc(CN(C)C[C@H]2Oc3ccc(NS(=O)(=O)c4ccc(OC)cc4)cc3C(=O)N([C@@H](C)CO)C[C@H]2C)cc1
 : -8	-5
C[C@H]1CN([C@@H](C)CO)C(=O)CCCn2cc(nn2)CO[C@H]1CN(C)C(=O)Nc1ccccc1F
 : 6	0
COCC#Cc1ccc2c(c1)O[C@@H](CN(C)C(=O)COC)[C@H](C)CN([C@@H](C)CO)S2(=O)=O
 : 3	3
CNC[C@H]1OCc2cnnn2CCCC(=O)N([C@H](C)CO)C[C@H]1C
 : 2	5
COc1ccc(S(=O)(=O)N(C)C[C@H]2Oc3ccc(NC(=O)CCCN(C)C)cc3C(=O)N([C@H](C)CO)C[C@H]2C)cc1
 : 10	9
C[C@H](CO)N1C[C@H](C)[C@@H](CN(C)S(=O)(=O)c2ccc(F)cc2)Oc2c(NC(=O)Nc3ccc(C(F)(F)F)cc3)cccc2C1=O
 : -22	-19
CO[C@H]1CN(C)C(=O)c2cccc(C#N)c2OC[C@H]2O[C@H](CC[C@H]2OC)CCN(C)C(=O)[C@H]1C
 : 0	-8
C[C@H](CO)N1C[C@H](C)[C@H](CN(C)C(=O)Nc2ccc(C(F)(F)F)cc2)Oc2c(NC(=O)C3CC3)cccc2C1=O
 : -13	-9
Cc1ccccc1S(=O)(=O)N[C@@H]1CC[C@@H](CCn2cc(Cc3ccccc3)nn2)O[C@H]1CO
 : -2	7
CO[C@H]1CN(C)C(=O)c2ccc(NC(=O)c3cc(C)on3)cc2OC[C@H](C)N(CC2CC2)C[C@H]1C
 : -5	-3
Cc1ccc(S(=O)(=O)N[C@H]2CC[C@@H](CCNC(=O)Cc3ccccn3)O[C@H]2CO)cc1
 : 6	5
COC(=O)[C@@]1(Cc2ccccc2CN=[N+]=[N-])N=C(c2ccc(OCCCO)cc2)O[C@H]1c1ccccc1
 : u	x
COc1ccc(NC(=O)N(C)C[C@@H]2OCCCC[C@H](C)Oc3ccc(NS(=O)(=O)c4ccc(F)cc4)cc3C(=O)N([C@H](C)CO)C[C@H]2C)cc1
 : -4	-1
C[C@@H]1CN([C@@H](C)CO)C(=O)CCCn2nncc2CO[C@H]1CN(C)CC1CCCCC1
 : 25	15
Cc1ccc(S(=O)(=O)Nc2ccc3c(c2)C(=O)N([C@H](C)CO)C[C@@H](C)[C@@H](CN(C)S(=O)(=O)c2ccc(C)cc2)O3)cc1
 : -18	-5
O=C(C[C@@H]1C[C@H]2c3cc(NC(=O)c4cccnc4)ccc3O[C@H]2[C@@H](CO)O1)NCc1ccncc1
 : 4	10
CCN1[C@H](C(=O)N(C)C)[C@@H](CO)[C@@H]2Cn3c(ccc(-c4ccc(OC)cc4)c3=O)[C@@H]21
 : 3	2
CCC(=O)Nc1ccc2c(c1)C(=O)N(C)[C@H]1CC[C@H](CC(=O)N[C@@H](C)c3ccccc3)O[C@@H]1CO2
 : 9	7
Cc1ccc(S(=O)(=O)Nc2ccc3c(c2)CC(=O)N([C@H](C)CO)C[C@@H](C)[C@@H](CN(C)C(=O)Nc2ccc4c(c2)OCO4)O3)cc1
 : 3	2
COCC#Cc1ccc([C@H]2[C@H](CO)N3CCCCN(C(=O)NC4CCCC4)C[C@@H]23)cc1
 : -6	-5
O=C(C[C@H]1CC[C@@H]2[C@H](COC[C@@H](O)CN2C(=O)Nc2ccc(Cl)cc2)O1)NCC1CC1
 : -7	-2
O=C(c1cccnc1)N1C[C@H]2[C@@H](c3ccccc31)[C@@H](CO)N2C(=O)Nc1ccccc1F
 : 5	0
O=S(=O)(N[C@@H]1CC[C@H](CCn2cc(C3(O)CCCC3)nn2)O[C@H]1CO)c1ccc(F)cc1
 : -1	1
CO[C@H]1CN(C)C(=O)c2ccc(NC(=O)C3CC3)cc2OC[C@H](C)N(C(=O)c2ccccc2F)C[C@@H]1C
 : 29	23
CN(C)C(=O)c1cccc(-c2ccccc2[C@@H]2[C@H](C#N)N(C(=O)C3CCCCC3)[C@H]2CO)c1
 : -9	-1
O=C(NCC(F)(F)F)[C@H]1[C@H](CO)[C@H]2Cn3c(ccc(-c4ccncc4)c3=O)[C@H]2N1Cc1ccncc1
 : -7	3
C[C@@H]1CN([C@H](C)CO)S(=O)(=O)c2ccc(C3=CCCCC3)cc2O[C@H]1CN(C)C(=O)c1ccncc1
 : -6	-7
COc1ccc(NC(=O)N2CCCCN3[C@@H](CO)[C@@H](c4ccc(-c5ccccc5F)cc4)[C@@H]3C2)cc1
 : u	x
C[C@H]1CN([C@@H](C)CO)C(=O)c2c(c3ccccc3n2C)-c2ccccc2CO[C@H]1CN(C)Cc1ccc(C(=O)O)cc1
 : 32	28
COc1ccccc1-c1cnc2c(c1)C(=O)N([C@H](C)CO)C[C@H](C)[C@H](CN(C)C(=O)c1cccnc1)O2
 : 9	1
COc1ccccc1NC(=O)N1CCCCN2[C@H](CO)[C@H](c3ccc(-c4ccccc4)cc3)[C@@H]2C1
 : -28	-21
O=C(Nc1ccc(F)cc1)N[C@H]1CC[C@H](CCn2cc(-c3ccccc3F)nn2)O[C@@H]1CO
 : -8	-9
CN(C)c1ccc2c(c1)[C@H]1C[C@H](CC(=O)NC3CCCC3)O[C@H](CO)[C@H]1O2
 : -5	-3
CC(C)NC(=O)N1CC2(C1)[C@H](c1ccccc1)[C@H](CO)N2CCC(F)(F)F
 : -3	1
C[C@@H]1CN([C@H](C)CO)C(=O)c2cc(NS(=O)(=O)c3cn(C)cn3)ccc2O[C@H]1CN(C)Cc1ccc(-c2ccccc2)cc1
 : 7	15
Cc1ccccc1S(=O)(=O)NCC[C@@H]1CC[C@@H](NC(=O)C2CCOCC2)[C@H](CO)O1
 : -4	2
COCC(=O)Nc1ccc2c(c1)[C@@H]1C[C@H](CC(=O)NCc3cccnc3)O[C@H](CO)[C@@H]1O2
 : 5	6
CCC(=O)N1C[C@H](C)[C@H](OC)CN(C)C(=O)c2ccc(NC(=O)c3ccccc3)cc2OC[C@@H]1C
 : 15	9
COC(=O)[C@@H]1[C@@H](CO)[C@@H]2Cn3c(ccc(-c4ccccc4OC)c3=O)[C@@H]2N1CC1CCOCC1
 : 11	14

Four structures from above, sorted by SMILES length, highest first:
Results follow in this order: Vaccinia stage	Vaccinia stage Venus
COc1cccc(C(=O)Nc2ccc3c(c2)C(=O)N(C)C[C@H](OC)[C@@H](C)CN(C(=O)C2CCCC2)[C@H](C)CO3)c1
 : -13	-10
C[C@@H]1CN([C@H](C)CO)S(=O)(=O)c2ccc(C3=CCCCC3)cc2O[C@H]1CN(C)C(=O)c1ccncc1
 : -6	-7
O=C(C[C@H]1C[C@@H]2c3cc(NC(=O)NC4CCCC4)ccc3O[C@@H]2[C@H](CO)O1)NC1CCCC1
 : 8	4
Cc1ccccc1S(=O)(=O)N[C@@H]1CC[C@@H](CCn2cc(Cc3ccccc3)nn2)O[C@H]1CO
 : -2	7

Other entries.
Results follow in this order: Vaccinia stage	Vaccinia stage Venus
CC(C)c1cn(CC[C@@H]2CC[C@@H](NC(=O)C3CCOCC3)[C@H](CO)O2)nn1
 : 5	-1
CCN1[C@@H]2c3ccc(-c4ccncc4)c(=O)n3C[C@@H]2[C@@H](CO)[C@@H]1C(=O)Nc1ccccc1
 : -3	10
CC(C)NC(=O)N(C)C[C@H]1OCCCC[C@H](C)Oc2ccc(NC(=O)Cc3ccccc3)cc2C(=O)N([C@@H](C)CO)C[C@@H]1C
 : -3	-2
Cc1noc(C)c1S(=O)(=O)Nc1ccc2c(c1)C(=O)N([C@H](C)CO)C[C@@H](C)[C@H](CN(C)C(=O)Nc1ccc(C(F)(F)F)cc1)OCCCC[C@@H](C)O2
 : u	x
CCCN1[C@@H]2Cn3c(ccc(-c4ccccc4)c3=O)[C@H]1[C@@H](C(=O)N1CCCCC1)[C@@H]2CO
 : 21	4
CC(=O)n1cc([C@@H]2C=C(C(=O)N3CCN(Cc4ccccc4)CC3)O[C@H](OCc3ccc(CO)cc3)C2)c2ccccc21
 : 0	5
CC(C)NC(=O)N(C)C[C@@H]1OCCCC[C@H](C)Oc2ccc(N(C)C)cc2C(=O)N([C@@H](C)CO)C[C@H]1C
 : 11	0
O=C(Nc1cc(F)ccc1F)N1CC(=O)N2[C@H](CO)[C@@H](c3ccc(C#CC4CCCC4)cc3)[C@@H]2C1
 : u	x
COc1cccc(CN2CC3(CCN(C)CC3)c3c([nH]c4cc(OC)ccc34)[C@@H]2CO)c1
 : -20	-25
CCCc1cn(CC[C@@H]2CC[C@@H](NC(=O)CCN3CCCCC3)[C@H](CO)O2)nn1
 : 5	6
CC=Cc1ccc2n(c1=O)C[C@H]1[C@H](CO)[C@@H](C(=O)N[C@H](C)c3ccccc3)[C@@H]2N1Cc1cncnc1 (mixture of isomers)
 : 6	0
CC(C)NC(=O)N(C)C[C@@H]1OCCCC[C@@H](C)Oc2ccc(N(C)C)cc2C(=O)N([C@@H](C)CO)C[C@@H]1C
 : 19	14
O=C(NCC[C@H]1CC[C@H](NS(=O)(=O)c2ccccc2)[C@H](CO)O1)c1cc(Cl)cc(Cl)c1
 : -33	-12
C[C@@H]1CCCCO[C@@H](CN(C)Cc2ccc(Cl)c(Cl)c2)[C@H](C)CN([C@@H](C)CO)C(=O)c2cc(NC(=O)Nc3ccc(C(F)(F)F)cc3)ccc2O1
 : -7	4
O=C(O)C[C@H]1C[C@@H]2c3cc(NS(=O)(=O)c4ccc(F)cc4)ccc3O[C@@H]2[C@@H](CO)O1
 : -5	3
CCCNC(=O)C[C@@H]1C[C@@H]2c3cc(NC(=O)COC)ccc3O[C@@H]2[C@@H](CO)O1
 : 3	0
COc1ccc(CN(C)C[C@H]2OCCCC[C@H](C)Oc3ccc(NC(=O)c4ccccc4)cc3C(=O)N([C@H](C)CO)C[C@H]2C)cc1
 : -26	-22
Cc1ccc(S(=O)(=O)Nc2ccc3c(c2)C(=O)N([C@@H](C)CO)C[C@H](C)[C@H](CN(C)C)O3)cc1
 : 16	5
COc1ccc(NC(=O)Nc2ccc3c(c2)OC[C@@H](C)NC[C@@H](C)[C@@H](OC)CN(C)C3=O)cc1
 : 4	4

2 entries from above, set out differently:
CCN1[C@@H]2c3ccc(-c4ccncc4)c(=O)n3C[C@@H]2[C@@H](CO)[C@@H]1C(=O)Nc1ccccc1
- Vaccinia stage: -3
- Vaccinia stage Venus: 10

O=C(O)C[C@H]1C[C@@H]2c3cc(NS(=O)(=O)c4ccc(F)cc4)ccc3O[C@@H]2[C@@H](CO)O1
- Vaccinia stage: -5
- Vaccinia stage Venus: 3

These rows are one share of the data. The share of hits here may be higher or lower than overall.
